From PubChem
H5N1 CPE = MDCK cell protection from H5N1 avian flu; cytopathic effect, luminescence, 72 h; active compounds read high; no value below 0 was filed and about half of the inactive calls have no number; reference of the scale not given here; inhibition, % at 50 µM; hit rate 0.07% among 96,000; AID 740; in the data active = inhibition above about 25%
Starred values were filed as active, the others as inactive. Not all compounds are listed; the hit share may differ from the screen's.

What do the screens show for `Cc1ccc(N(CC(=O)Nc2ccccc2-c2ccccc2)S(=O)(=O)c2ccccc2)cc1`?
H5N1 CPE: 0.2

How did O=C(CN1C(=O)c2cccc3cccc1c23)Nc1ccc(S(=O)(=O)Nc2nccs2)cc1 do in these assays?
H5N1 CPE: inactive

What do the screens show for `COc1ccc(C(C)=O)cc1CSCCC#N`?
H5N1 CPE: inactive

What do the screens show for `Cc1ccc(C(=O)Nc2cc(Cl)ccc2N2CCCCC2)s1`?
H5N1 CPE: inactive

Results for COc1ccc(CCNC2=C(Cl)C(=O)N(CCc3ccccc3)C2=O)cc1OC ?
H5N1 CPE: 1.3

What do the screens show for `Cc1[nH]n2c(=O)c3c(nc2c1-c1ccccc1)CCCC3`?
H5N1 CPE: 2.4

What do the screens show for `COc1ccc(-c2nnc(-c3ccc(Br)o3)o2)cc1OC`?
H5N1 CPE: inactive

What do the screens show for `CCc1ccc(C2(C)SC(NC(C)=O)=NN2C(C)=O)cc1` (stereo not drawn)?
H5N1 CPE: 0.2

Results for Cc1cccc(C(=O)N2CCCN(C(=O)c3cccc(C)c3)CC2)c1 ?
H5N1 CPE: 0.4

Results for Cc1cccc(OCc2nnc(SCC(=O)N3CCCC3)n2C)c1 ?
H5N1 CPE: inactive

How did CCOC(=O)C1CCN(C=Nc2cc(C)on2)CC1 do in these assays?
H5N1 CPE: 3.9

Results for O=C(CSc1nnc(-c2cccs2)n1-c1ccccc1)Nc1ccccc1 ?
H5N1 CPE: 0.8

How did Cc1cccc(N2CCN(C(=O)Cn3cccc3)CC2)c1C do in these assays?
H5N1 CPE: 0.3

How did CC(C)Sc1nnc([C@@H](N)Cc2ccccc2)o1 do in these assays?
H5N1 CPE: 1.1

How did Oc1ccccc1C1=NOC(O)(C(F)F)C1 (stereo not drawn) do in these assays?
H5N1 CPE: 0.6

How did O=S(=O)(NCc1ccccc1)c1cnc[nH]1 do in these assays?
H5N1 CPE: inactive

How did O=S(=O)(NCC(c1cccnc1)N1CCN(c2ccccc2)CC1)c1cccs1 (stereo not drawn) do in these assays?
H5N1 CPE: 1.2

Results for N#Cc1c[nH]n2c(=O)cc(Cc3ccccc3)nc12 ?
H5N1 CPE: inactive

What do the screens show for `Cc1[nH]n2c(=O)c3c(nc2c1-c1ccc(Cl)cc1)CCC3`?
H5N1 CPE: 5.1

Results for Cn1c(=O)[nH]c(=O)c2c1nc1n2CCN1Cc1ccccc1 ?
H5N1 CPE: 2.2

Results for CCC(C)C(NC(=O)c1ccccc1NC(=O)c1ccco1)C(=O)O (stereo not drawn) ?
H5N1 CPE: inactive

How did Cc1ccc(-c2nc3ncccn3c2NC(=O)C2CC2)cc1 do in these assays?
H5N1 CPE: 0.2

How did O=C(O)c1cc2ccccc2c(=O)s1 do in these assays?
H5N1 CPE: inactive

What do the screens show for `CCOc1cc(CNn2cnnc2)ccc1OCC(=O)NC1CCCCC1`?
H5N1 CPE: 0.0

What do the screens show for `CCN(CC)CCN1C(=O)C(=O)/C(=C(/O)c2cnn(-c3ccccc3)c2C)C1c1cccnc1` (stereo not drawn)?
H5N1 CPE: 0.5

How did CCC(C)(C)n1nnnc1CN(Cc1cccs1)Cc1cc2cc(OC)ccc2[nH]c1=O do in these assays?
H5N1 CPE: inactive

How did O=C(NCCN1CCOCC1)c1cc(-c2ccc(Cl)cc2)on1 do in these assays?
H5N1 CPE: inactive

How did CCN1CCN(c2ncc(C(=O)N3CCCc4ccccc43)c3ccccc23)CC1 do in these assays?
H5N1 CPE: inactive

Results for O=C(NCc1ccccc1Cl)c1cnc2n(c1=O)CCS2 ?
H5N1 CPE: inactive

Results for Cn1c(=O)c2c(nc(CN3CCN(C(=O)c4ccco4)CC3)n2Cc2ccccc2F)n(C)c1=O ?
H5N1 CPE: 3.2

Already shown: entries from further up.
Results for N#Cc1c[nH]n2c(=O)cc(Cc3ccccc3)nc12 ?
H5N1 CPE: inactive

What do the screens show for `Cc1[nH]n2c(=O)c3c(nc2c1-c1ccc(Cl)cc1)CCC3`?
H5N1 CPE: 5.1

Results for Cn1c(=O)[nH]c(=O)c2c1nc1n2CCN1Cc1ccccc1 ?
H5N1 CPE: 2.2

Results for CCC(C)C(NC(=O)c1ccccc1NC(=O)c1ccco1)C(=O)O (stereo not drawn) ?
H5N1 CPE: inactive

How did Cc1ccc(-c2nc3ncccn3c2NC(=O)C2CC2)cc1 do in these assays?
H5N1 CPE: 0.2

How did O=C(O)c1cc2ccccc2c(=O)s1 do in these assays?
H5N1 CPE: inactive

What do the screens show for `CCOc1cc(CNn2cnnc2)ccc1OCC(=O)NC1CCCCC1`?
H5N1 CPE: 0.0

What do the screens show for `CCN(CC)CCN1C(=O)C(=O)/C(=C(/O)c2cnn(-c3ccccc3)c2C)C1c1cccnc1` (stereo not drawn)?
H5N1 CPE: 0.5

How did CCC(C)(C)n1nnnc1CN(Cc1cccs1)Cc1cc2cc(OC)ccc2[nH]c1=O do in these assays?
H5N1 CPE: inactive

How did O=C(NCCN1CCOCC1)c1cc(-c2ccc(Cl)cc2)on1 do in these assays?
H5N1 CPE: inactive

How did CCN1CCN(c2ncc(C(=O)N3CCCc4ccccc43)c3ccccc23)CC1 do in these assays?
H5N1 CPE: inactive

Results for O=C(NCc1ccccc1Cl)c1cnc2n(c1=O)CCS2 ?
H5N1 CPE: inactive

Results for Cn1c(=O)c2c(nc(CN3CCN(C(=O)c4ccco4)CC3)n2Cc2ccccc2F)n(C)c1=O ?
H5N1 CPE: 3.2

(further entries)
Results for CCOc1ccc(NC2CCN(C(C)=O)CC2)cc1 ?
H5N1 CPE: 0.5

How did COc1ccccc1CN(Cc1nc2ccccc2c(=O)[nH]1)C(=O)Nc1ccccc1 do in these assays?
H5N1 CPE: 1.0

What do the screens show for `Cc1ccccc1OC(C)C(=O)NC1CCCC1` (stereo not drawn)?
H5N1 CPE: 0.4

How did CC1Cc2ccccc2N1C(=O)CCS(=O)(=O)c1cccc2nonc12 (stereo not drawn) do in these assays?
H5N1 CPE: 1.6

Results for CN(Cc1ccccc1)C(=O)Nc1ccccc1 ?
H5N1 CPE: inactive

What do the screens show for `CC1CCC2(CC1)NC(=S)N(c1ccccc1)N2` (stereo not drawn)?
H5N1 CPE: 0.2

Results for CCOC(=O)c1c(C(F)(F)F)nc2ncccn12 ?
H5N1 CPE: inactive

How did CCOC(=O)c1c(N)sc(C(C)=O)c1C do in these assays?
H5N1 CPE: inactive

What do the screens show for `O=C(CCN1C(=O)COc2ccccc21)NCCCN1CCc2ccccc2C1`?
H5N1 CPE: inactive

What do the screens show for `CC(=O)Oc1ccc2c(c1)OC(c1ccccc1)CC21CC(C)(C)NC(=S)N1` (stereo not drawn)?
H5N1 CPE: 2.2

How did Cc1nc(S(=O)(=O)c2ccc(Cl)cc2)nc2c1CCC2 do in these assays?
H5N1 CPE: inactive

Results for CCCCC(CC)Cn1c2nc3ccccc3nc2c2c(=N)oc(C)nc21 (stereo not drawn) ?
H5N1 CPE: inactive

What do the screens show for `COc1ccccc1C(=O)N1CCN(S(=O)(=O)Cc2ccccc2)CC1`?
H5N1 CPE: 0.8

Results for Cc1cccc(NC(=O)/C(=C\c2cccs2)NC(=O)c2ccccc2)c1 ?
H5N1 CPE: inactive

What do the screens show for `COC(=O)Cc1n[nH]c(=S)[nH]c1=O`?
H5N1 CPE: 0.9

What do the screens show for `O=P(O)(CP(=O)(c1ccccc1)c1ccccc1)c1ccccc1O`?
H5N1 CPE: 0.3

Results for CN1C(=O)CSc2ccc(NC(=O)NCCC3=CCCCC3)cc21 ?
H5N1 CPE: 0.1

Results for COc1ccc(N2CCN(S(=O)(=O)c3ccc(Br)s3)CC2)cc1 ?
H5N1 CPE: inactive

Results for CCOC(=O)c1c(C)n(OC)c2ccc3c(no[n+]3[O-])c12 ?
H5N1 CPE: 0.1

Results for COc1ccc(C(=O)/C=C2/c3ccccc3CC(C)(C)N2C)cc1 ?
H5N1 CPE: inactive

What do the screens show for `CCc1nnc(NC(=O)CSc2ncc(-c3ccccc3)n2CC)s1`?
H5N1 CPE: 0.5

How did Cc1ccc(N2C(=O)C(CN(C)C)C2c2ccccc2)cc1 (stereo not drawn) do in these assays?
H5N1 CPE: 0.5

What do the screens show for `Cc1ccc(-n2nc(C)c3c(C)cc(=O)[nH]c32)cc1`?
H5N1 CPE: 0.4

Results for COCCn1c(SCC(=O)N2CCCC2)nnc1-c1ccoc1C ?
H5N1 CPE: 0.1

What do the screens show for `O=C(Nc1ccc(O)cc1C(=O)O)c1cccc(Br)c1`?
H5N1 CPE: inactive

How did Clc1ccc(C2=Nn3c(nnc3-c3n[nH]c4c3CCC4)SC2)cc1 do in these assays?
H5N1 CPE: inactive

How did CCCCCCOC(=O)/C=C/c1c(C)[nH]c(=O)[nH]c1=O do in these assays?
H5N1 CPE: inactive

How did Cn1c(C(O)c2ccc3c(c2)OCO3)nc2ccccc21 (stereo not drawn) do in these assays?
H5N1 CPE: inactive

What do the screens show for `CCOC(=O)N1CCN(S(=O)(=O)c2cccc3nsnc23)CC1`?
H5N1 CPE: 0.5

How did Clc1ccc(-c2nnc(N3CCCC3)nn2)cc1 do in these assays?
H5N1 CPE: inactive

Results for COC(=O)c1c(C(=O)OC)c2oc3ccccc3n2c1Cl ?
H5N1 CPE: inactive

What do the screens show for `CCOC(=O)c1c(-c2ccccc2)oc2ccc(O)c(CN(C)C)c12`?
H5N1 CPE: inactive

Results for COc1cc(C(=O)OCC(=O)NCc2ccccc2)cc(NC(=O)c2ccco2)c1OC ?
H5N1 CPE: 0.1

How did NC(=O)CSc1ncnc2c1oc1ccccc12 do in these assays?
H5N1 CPE: 5.1

What do the screens show for `Nc1ncncc1-c1ccc([N+](=O)[O-])cc1`?
H5N1 CPE: 0.6

Results for CC1(C)N=C(c2ccccc2)C(=O)N1 ?
H5N1 CPE: 0.3

Results for CSc1nsc(SC)c1NC(=O)N1CCCC1 ?
H5N1 CPE: inactive

Results for COc1ccc(C2C(C(=O)N3CC(C)CC(C)C3)c3ccccc3C(=O)N2C)cc1 (stereo not drawn) ?
H5N1 CPE: 1.1

How did O=C(O)c1ccc(-n2nnnc2SCc2ccccc2)cc1 do in these assays?
H5N1 CPE: 0.2

Results for Cc1ccnc(Sc2ncccc2[N+](=O)[O-])n1 ?
H5N1 CPE: 1.5

Results for CC(=O)c1cn(CC(=O)NCc2ccco2)c2ccccc12 ?
H5N1 CPE: 2.5

How did Cc1cc2ncn(-c3ncnc4sc5c(c34)CCC(C)C5)c2cc1C (stereo not drawn) do in these assays?
H5N1 CPE: 0.4

What do the screens show for `NC(=O)c1cnn2c(C(F)(F)F)cc(-c3ccccc3)nc12`?
H5N1 CPE: 2.4

How did CCSc1nnc(NC(=O)CSc2nccn2-c2cccc(C)c2)s1 do in these assays?
H5N1 CPE: 0.2

How did CCC1CCCCN1CCCNC(=O)C1CCN(S(=O)(=O)N2CCCCC2)CC1 (stereo not drawn) do in these assays?
H5N1 CPE: inactive

What do the screens show for `Cc1cc(C)cc(NC(=O)CSc2nnc(-c3ccc(S(=O)(=O)N4CCCC4)cc3)o2)c1`?
H5N1 CPE: 1.7

Results for Cc1cc(Cl)c(S(=O)(=O)N2CCCCCC2)cc1OCC(N)=O ?
H5N1 CPE: 0.5

How did CCOC(=O)N1CCC(N2Cc3cccc(C(=O)O)c3C2=O)CC1 do in these assays?
H5N1 CPE: 0.9

How did C=C(C)n1c(=O)[nH]c2ccccc21 do in these assays?
H5N1 CPE: inactive

What do the screens show for `CCc1nnc(NC(=O)CSc2ncnc3c2cnn3-c2ccc(OC)cc2)s1`?
H5N1 CPE: inactive

What do the screens show for `CCCCCC(=O)N(O)C1CC(=O)N(c2ccccc2)C1=O` (stereo not drawn)?
H5N1 CPE: 2.2

How did CSc1nc2ccc(NC(=O)C3CCCO3)cc2s1 (stereo not drawn) do in these assays?
H5N1 CPE: inactive

Results for COc1cc(NC(=O)CCN2CCN(c3ccccc3F)CC2)cc(OC)c1 ?
H5N1 CPE: inactive

Results for Cn1c(=O)n(C)c2cc(C(N)=O)ccc21 ?
H5N1 CPE: 0.7

How did CC(C)N1C(=O)CCC1C(=O)NCCc1ccccc1 (stereo not drawn) do in these assays?
H5N1 CPE: inactive

How did Cc1ccc(CNn2cnnc2SCC(=O)NC(C)(C)C)cc1 do in these assays?
H5N1 CPE: 0.7

Results for Cc1ccc(CCNC(=O)CN2CCN(Cc3ccccc3F)C2=O)cc1 ?
H5N1 CPE: inactive

Results for Cc1ccc(OCCCC(=O)Nc2ccc(Br)cc2)cc1 ?
H5N1 CPE: 0.4

How did Cn1ccnc1Sc1nnnn1-c1ccccc1 do in these assays?
H5N1 CPE: 0.7

Results for COc1ccc(CC(=O)NNC(=O)c2ccoc2C)cc1OC ?
H5N1 CPE: 0.2

A draw from above in order of count of non-hydrogen atoms, highest first:
Results for Cc1ccc(CCNC(=O)CN2CCN(Cc3ccccc3F)C2=O)cc1 ?
H5N1 CPE: inactive

What do the screens show for `CCCCCC(=O)N(O)C1CC(=O)N(c2ccccc2)C1=O` (stereo not drawn)?
H5N1 CPE: 2.2

How did CC(C)N1C(=O)CCC1C(=O)NCCc1ccccc1 (stereo not drawn) do in these assays?
H5N1 CPE: inactive

Carrying on:
What do the screens show for `OC(CNC1CCCCC1)c1ccccc1` (stereo not drawn)?
H5N1 CPE: 0.8

What do the screens show for `CCN1C(=O)N(C)C2(c3ccccc3)N(C)C(=O)N(C)C12c1ccccc1` (stereo not drawn)?
H5N1 CPE: 2.0

What do the screens show for `COC(=O)c1c(-c2ccc(OC)c(OC)c2)csc1N`?
H5N1 CPE: inactive

How did CCCCOC(=O)C1=C(C)Nc2ncnn2C1c1ccc(OC)c(OC)c1OC (stereo not drawn) do in these assays?
H5N1 CPE: 0.1

What do the screens show for `CCSP1(=S)N=C(N2CCOCC2)C(C#N)=C2CCCN21` (stereo not drawn)?
H5N1 CPE: 1.3

How did CCc1ccc(OCC(=O)NC(NC(=S)Nc2ccc(C)cc2C)C(Cl)(Cl)Cl)cc1 (stereo not drawn) do in these assays?
H5N1 CPE: inactive

How did c1ccc(Cn2ccc(-c3cnc(-c4ccccc4)s3)n2)cc1 do in these assays?
H5N1 CPE: inactive

What do the screens show for `CS(=O)(=O)N(CC(=O)Nc1cccc(F)c1)c1cccc([N+](=O)[O-])c1`?
H5N1 CPE: inactive

How did COc1cc2[nH]c3c(N4CCN(c5ccccn5)CC4)ncnc3c2cc1OC do in these assays?
H5N1 CPE: inactive

What do the screens show for `CC(C)N(C(=O)COc1ccc(Br)cc1Cl)C(C)C`?
H5N1 CPE: inactive

What do the screens show for `CCCCC(=O)NC(N1CCCCC1)C(Cl)(Cl)Cl` (stereo not drawn)?
H5N1 CPE: inactive
